# High-throughput results (PubChem BioAssay)
# Ran FRET = inhibitors of Ran–importin-beta complex formation, primary screen, biochemical, CFP-Ran/YFP-importin-beta FRET, RCC1, cell-free (AID 434961). inhibition, %. 7,700 compounds, 0.2% hits. CFP-Ran/YFP-importin-beta FRET, cell-free; stronger effect = higher value;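 active = more than half of the replicate wells above 15% inhibition; inconclusive = exactly half above it; inactive = fewer than half above it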;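 also: 0% = DMSO wells and 100% inhibition = RanGDP control wells on each plate; stock of unstated strength diluted about 400-fold; mean of two wells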
# * marks the source's active call; other numbers are inactive results; ? = inconclusive.
Ran FRET | smiles
2.3 | CNC[C@@H]1Oc2c(NS(=O)(=O)c3ccc(Cl)cc3)cccc2C(=O)N([C@@H](C)CO)C[C@@H]1C
-4.3 | C[C@H]1CN([C@@H](C)CO)C(=O)c2cccc(NC(=O)C3CCOCC3)c2O[C@H]1CN(C)S(=O)(=O)c1ccc(Cl)cc1
-2.3 | COc1ccc(CN(C)C[C@@H]2Oc3ccc(NC(=O)Nc4cccc5ccccc45)cc3CC(=O)N([C@H](C)CO)C[C@@H]2C)cc1
-1.9 | C[C@H](CO)N1C[C@H](C)[C@H](CN(C)S(=O)(=O)c2cccs2)Oc2ccc(NC(=O)CCN3CCOCC3)cc2CC1=O
? | C[C@@H]1CN([C@@H](C)CO)C(=O)CCCn2nncc2CO[C@@H]1CN(C)C(=O)Nc1ccc(C(C)(C)C)cc1
-2.4 | C[C@H](CO)N1C[C@H](C)[C@H](CN(C)S(=O)(=O)c2ccc(F)cc2)Oc2ccc(NS(=O)(=O)c3ccccc3)cc2CC1=O
-1.0 | CNC[C@H]1Oc2c(NC(=O)c3ccncc3)cccc2C(=O)N([C@@H](C)CO)C[C@H]1C
-2.2 | CC(C)NC(=O)N(C)C[C@H]1OCCCC[C@@H](C)Oc2ccc(NS(C)(=O)=O)cc2C(=O)N([C@H](C)CO)C[C@@H]1C
-0.2 | C[C@@H]1CN([C@@H](C)CO)C(=O)CCCn2cc(nn2)CO[C@H]1CN(C)C
-4.9 | Cc1cc(C(=O)Nc2cccc3c2O[C@H](CN(C)S(=O)(=O)c2cccs2)[C@H](C)CN([C@@H](C)CO)C3=O)n(C)n1
7.3 | C[C@@H]1CCCCO[C@H](CN(C)C(=O)CCC(F)(F)F)[C@H](C)CN([C@H](C)CO)C(=O)c2cc(NS(C)(=O)=O)ccc2O1
1.2 | C[C@H](CO)N1C[C@H](C)[C@@H](CN(C)Cc2ccncc2)Oc2c(NS(=O)(=O)c3ccc(Cl)cc3)cccc2C1=O

# Nothing new here: entries from further up.
Ran FRET | smiles
2.3 | CNC[C@@H]1Oc2c(NS(=O)(=O)c3ccc(Cl)cc3)cccc2C(=O)N([C@@H](C)CO)C[C@@H]1C
-4.3 | C[C@H]1CN([C@@H](C)CO)C(=O)c2cccc(NC(=O)C3CCOCC3)c2O[C@H]1CN(C)S(=O)(=O)c1ccc(Cl)cc1
-2.3 | COc1ccc(CN(C)C[C@@H]2Oc3ccc(NC(=O)Nc4cccc5ccccc45)cc3CC(=O)N([C@H](C)CO)C[C@@H]2C)cc1
-1.9 | C[C@H](CO)N1C[C@H](C)[C@H](CN(C)S(=O)(=O)c2cccs2)Oc2ccc(NC(=O)CCN3CCOCC3)cc2CC1=O
? | C[C@@H]1CN([C@@H](C)CO)C(=O)CCCn2nncc2CO[C@@H]1CN(C)C(=O)Nc1ccc(C(C)(C)C)cc1

# (next part)
Ran FRET | smiles
-1.4 | C[C@H]1CN([C@@H](C)CO)C(=O)Cc2cc(NC(=O)Nc3ccc(C(F)(F)F)cc3)ccc2O[C@H]1CN(C)CC1CC1
1.8 | C[C@@H]1CN([C@@H](C)CO)C(=O)Cc2cc(NC(=O)Nc3ccc(F)cc3)ccc2O[C@H]1CN(C)C(=O)NC1CCCCC1
5.8 | Cc1noc(C)c1S(=O)(=O)N(C)C[C@H]1OCCCC[C@H](C)Oc2ccc(NC(=O)NC(C)C)cc2C(=O)N([C@H](C)CO)C[C@@H]1C
-1.7 | Cc1noc(C)c1S(=O)(=O)N(C)C[C@@H]1OCCCC[C@@H](C)Oc2ccc(NS(C)(=O)=O)cc2C(=O)N([C@H](C)CO)C[C@H]1C
-5.0 | COc1ccc(S(=O)(=O)N(C)C[C@@H]2Oc3c(NC(=O)NC4CCCCC4)cccc3C(=O)N([C@@H](C)CO)C[C@H]2C)cc1
-2.1 | C[C@@H]1CN([C@H](C)CO)C(=O)c2cccc(NC(=O)C3CC3)c2O[C@H]1CN(C)C
4.3 | COc1ccc(S(=O)(=O)N(C)C[C@H]2Oc3ccc(NC(=O)C4CC4)cc3C(=O)N([C@@H](C)CO)C[C@H]2C)cc1
1.1 | C[C@H](CO)N1C[C@H](C)[C@H](CN(C)Cc2ccncc2)Oc2ccc(NC(=O)Nc3cccc4ccccc34)cc2CC1=O
0.0 | CC(C)NC(=O)Nc1ccc2c(c1)C(=O)N([C@H](C)CO)C[C@H](C)[C@@H](CN(C)C(=O)c1ccncc1)OCCCC[C@H](C)O2
2.4 | C[C@H]1CN([C@@H](C)CO)C(=O)Cc2cc(NC(=O)Nc3ccccc3)ccc2O[C@H]1CN(C)C(=O)Nc1ccc(C(F)(F)F)cc1
-3.7 | COc1ccc(NC(=O)Nc2ccc3c(c2)C(=O)N([C@@H](C)CO)C[C@@H](C)[C@H](CN(C)C)O3)cc1
-2.1 | C[C@H]1CN([C@@H](C)CO)C(=O)CCCn2cc(nn2)CO[C@H]1CN(C)Cc1ccc2c(c1)OCO2

# Additional results
Ran FRET | smiles
0.5 | COc1ccc(NC(=O)Nc2ccc3c(c2)C(=O)N([C@@H](C)CO)C[C@H](C)[C@@H](CN(C)S(=O)(=O)c2ccc(OC)cc2)O3)cc1
0.1 | C[C@H](CO)N1C[C@H](C)[C@H](CN(C)CC2CCCCC2)Oc2ccc(NC(=O)Nc3ccc4c(c3)OCO4)cc2C1=O
-2.3 | C[C@@H]1CN([C@H](C)CO)C(=O)c2cccc(NC(=O)Nc3ccc4c(c3)OCO4)c2O[C@H]1CN(C)C(=O)NC1CCCCC1
0.5 | C[C@@H]1CN([C@H](C)CO)C(=O)Cc2cc(NC(=O)NC3CCCCC3)ccc2O[C@@H]1CN(C)Cc1ccncc1
-3.5 | C[C@H]1CN([C@@H](C)CO)C(=O)c2cccc(NS(=O)(=O)c3cccs3)c2O[C@H]1CN(C)Cc1ccc(C(F)(F)F)cc1
-2.6 | C[C@H](CO)N1C[C@H](C)[C@@H](CN(C)S(=O)(=O)c2cccs2)Oc2c(NC(=O)C3CCOCC3)cccc2C1=O
0.4 | C[C@@H]1CN([C@H](C)CO)C(=O)c2cc(NC(=O)Nc3ccc4c(c3)OCO4)ccc2O[C@@H](C)CCCCO[C@@H]1CN(C)C(=O)c1ccccc1
-4.8 | C[C@@H]1CN([C@H](C)CO)C(=O)CCCn2cc(nn2)CO[C@@H]1CN(C)S(=O)(=O)c1ccc(Oc2ccccc2)nc1
0.5 | C[C@H]1CN([C@@H](C)CO)C(=O)c2cccc(NS(=O)(=O)c3cn(C)cn3)c2O[C@H]1CN(C)S(=O)(=O)c1ccc(F)cc1
-2.6 | C[C@@H]1CN([C@H](C)CO)C(=O)c2cc(NC(=O)Nc3ccc(F)cc3)ccc2O[C@@H]1CN(C)S(=O)(=O)c1cccs1
? | C[C@@H]1CCCCO[C@H](CN(C)C(=O)Nc2ccccc2)[C@@H](C)CN([C@@H](C)CO)C(=O)c2cc(NC(=O)CCC(F)(F)F)ccc2O1
-4.5 | C[C@H]1CN([C@@H](C)CO)C(=O)c2cc(NC(=O)Cc3ccccc3)ccc2O[C@H]1CN(C)CC1CC1

# Other records.
Ran FRET | smiles
0.8 | CNC[C@H]1Oc2ccc(NC(=O)Cc3ccccc3)cc2CC(=O)N([C@H](C)CO)C[C@H]1C
-2.1 | C[C@@H]1CN([C@H](C)CO)C(=O)c2cc(NS(=O)(=O)c3cn(C)cn3)ccc2O[C@H]1CN(C)C(=O)NC1CCCCC1
-0.4 | C[C@H]1CN([C@@H](C)CO)C(=O)Cc2cc(N(C)C)ccc2O[C@@H]1CN(C)C(=O)Nc1ccccc1
-8.1 | C[C@@H]1CN([C@@H](C)CO)C(=O)Cc2cc(NC(=O)NC3CCCCC3)ccc2O[C@H]1CN(C)C(=O)Nc1ccc(F)cc1
-0.2 | Cc1noc(C)c1NC(=O)N(C)C[C@@H]1Oc2c(NS(=O)(=O)c3ccccc3)cccc2C(=O)N([C@H](C)CO)C[C@H]1C
-1.2 | CC(C)NC(=O)N(C)C[C@H]1OCCCC[C@@H](C)Oc2ccc(N(C)C)cc2C(=O)N([C@H](C)CO)C[C@H]1C
-0.4 | C[C@@H]1CN([C@@H](C)CO)C(=O)c2cc(N(C)C)ccc2O[C@@H](C)CCCCO[C@H]1CN(C)C(=O)CCCN(C)C
0.9 | C[C@H]1CN([C@@H](C)CO)C(=O)c2cccc(NC(=O)C3CCOCC3)c2O[C@@H]1CN(C)C(=O)Nc1ccc(C(F)(F)F)cc1
7.6 | Cc1noc(C)c1NC(=O)Nc1cccc2c1O[C@@H](CN(C)Cc1ccncc1)[C@@H](C)CN([C@H](C)CO)C2=O
-4.5 | C[C@H](CO)N1C[C@H](C)[C@H](CN(C)Cc2ccncc2)Oc2ccc(NC(=O)Nc3ccccc3)cc2C1=O
-2.1 | C[C@H]1CN([C@@H](C)CO)C(=O)c2cccc(N(C)C)c2O[C@H]1CN(C)C
5.1 | Cc1noc(C)c1NC(=O)N(C)C[C@H]1OCCCC[C@@H](C)Oc2ccc(N(C)C)cc2C(=O)N([C@H](C)CO)C[C@@H]1C

# Entries above that have a Cl atom, in the order listed:
Ran FRET | smiles
2.3 | CNC[C@@H]1Oc2c(NS(=O)(=O)c3ccc(Cl)cc3)cccc2C(=O)N([C@@H](C)CO)C[C@@H]1C
-4.3 | C[C@H]1CN([C@@H](C)CO)C(=O)c2cccc(NC(=O)C3CCOCC3)c2O[C@H]1CN(C)S(=O)(=O)c1ccc(Cl)cc1
1.2 | C[C@H](CO)N1C[C@H](C)[C@@H](CN(C)Cc2ccncc2)Oc2c(NS(=O)(=O)c3ccc(Cl)cc3)cccc2C1=O

# Additional results.
Ran FRET | smiles
3.0 | C[C@H](CO)N1C[C@H](C)[C@H](CN(C)C(=O)Nc2cccc3ccccc23)Oc2c(NC(=O)Nc3cccc4ccccc34)cccc2C1=O
-3.2 | COc1ccc(CN(C)C[C@@H]2Oc3c(NC(=O)c4ccncc4)cccc3C(=O)N([C@H](C)CO)C[C@H]2C)cc1
3.2 | CC(C)NC(=O)N(C)C[C@@H]1OCCCC[C@H](C)Oc2ccc(NC(=O)Nc3ccc(C(F)(F)F)cc3)cc2C(=O)N([C@H](C)CO)C[C@@H]1C
-6.4 | COc1ccc(CN(C)C[C@@H]2Oc3ccc(NS(=O)(=O)c4ccc(OC)cc4)cc3CC(=O)N([C@@H](C)CO)C[C@H]2C)cc1
0.1 | C[C@@H]1CCCCO[C@@H](CN(C)C(=O)c2ccncc2)[C@H](C)CN([C@H](C)CO)C(=O)c2cc(N(C)C)ccc2O1
-3.2 | CNC[C@@H]1OCCCC[C@@H](C)Oc2ccc(NC(=O)C3CCCCC3)cc2C(=O)N([C@@H](C)CO)C[C@H]1C
-1.9 | COc1ccc(S(=O)(=O)N(C)C[C@@H]2Oc3ccc(NS(=O)(=O)c4ccc(Cl)cc4)cc3C(=O)N([C@@H](C)CO)C[C@@H]2C)cc1
0.1 | C[C@@H]1CN([C@@H](C)CO)C(=O)c2cccc(NS(=O)(=O)c3ccc(F)cc3)c2O[C@H]1CN(C)C(=O)NC1CCCCC1
? | COc1ccc(S(=O)(=O)Nc2ccc3c(c2)C(=O)N([C@H](C)CO)C[C@H](C)[C@@H](CN(C)S(=O)(=O)c2cccs2)O3)cc1
2.3 | C[C@@H]1CCCCO[C@@H](CN(C)C(=O)CCC(F)(F)F)[C@H](C)CN([C@@H](C)CO)C(=O)c2cc(NS(=O)(=O)c3cccs3)ccc2O1
-1.9 | C[C@H](CO)N1C[C@H](C)[C@H](CN(C)C(=O)CCC(F)(F)F)OCCCC[C@H](C)Oc2ccc(NS(=O)(=O)c3cccs3)cc2C1=O
0.9 | C[C@@H]1CN([C@@H](C)CO)C(=O)c2cc(N(C)C)ccc2O[C@@H]1CN(C)S(=O)(=O)c1cn(C)cn1

# Next entries
Ran FRET | smiles
3.8 | C[C@@H]1CCCCO[C@@H](CN(C)C)[C@H](C)CN([C@H](C)CO)C(=O)c2cc(NC(=O)CCC(F)(F)F)ccc2O1
-1.6 | C[C@H]1CN([C@@H](C)CO)C(=O)c2cc(N(C)C)ccc2O[C@H]1CN(C)S(=O)(=O)c1cccs1
-2.5 | C[C@@H]1CCCCO[C@H](CN(C)Cc2ccc(C(=O)O)cc2)[C@H](C)CN([C@@H](C)CO)C(=O)c2cc(NC(=O)C3CCCCC3)ccc2O1
-21.4 | CNC[C@H]1OCCCC[C@@H](C)Oc2ccc(NS(=O)(=O)c3ccccc3)cc2C(=O)N([C@H](C)CO)C[C@@H]1C
-2.9 | C[C@@H]1CN([C@@H](C)CO)C(=O)c2cc(NC(=O)Cn3cnnn3)ccc2O[C@H]1CN(C)C(=O)NC1CCCCC1
-1.6 | C[C@@H]1CN([C@@H](C)CO)C(=O)c2cccc(NC(=O)c3ccncc3)c2O[C@@H]1CN(C)S(=O)(=O)c1ccc(F)cc1
-4.7 | C[C@@H]1CCCCO[C@H](CN(C)C)[C@H](C)CN([C@@H](C)CO)C(=O)c2cc(NC(=O)Nc3cccc4ccccc34)ccc2O1
-1.3 | Cc1noc(C)c1S(=O)(=O)Nc1ccc2c(c1)CC(=O)N([C@@H](C)CO)C[C@@H](C)[C@@H](CN(C)C(=O)Nc1ccc(F)cc1)O2
-0.2 | C[C@@H]1CN([C@@H](C)CO)C(=O)Cc2cc(NS(=O)(=O)c3cccs3)ccc2O[C@@H]1CN(C)Cc1ccc(C(F)(F)F)cc1
-0.1 | C[C@H]1CN([C@@H](C)CO)C(=O)CCCn2cc(nn2)CO[C@@H]1CN(C)Cc1ccccc1
-4.0 | C[C@H]1CN([C@@H](C)CO)C(=O)c2cc(NC(=O)Nc3ccc4c(c3)OCO4)ccc2O[C@H]1CN(C)Cc1ccc(C(=O)O)cc1
-0.1 | C[C@@H]1CN([C@@H](C)CO)C(=O)Cc2cc(NC(=O)CCN3CCOCC3)ccc2O[C@H]1CN(C)S(=O)(=O)c1cn(C)cn1
-1.5 | Cc1noc(C)c1S(=O)(=O)N(C)C[C@H]1Oc2ccc(NC(=O)NC(C)C)cc2CC(=O)N([C@@H](C)CO)C[C@@H]1C
1.2 | COc1ccc(NC(=O)Nc2cccc3c2O[C@@H](CN(C)S(=O)(=O)c2cn(C)cn2)[C@H](C)CN([C@@H](C)CO)C3=O)cc1
7.2 | C[C@H]1CCCCO[C@@H](CN(C)C(=O)C2CCCCC2)[C@@H](C)CN([C@@H](C)CO)C(=O)c2cc(N(C)C)ccc2O1

# An excerpt. The share of hits here may be higher or lower than overall.
